CtBP-E1A inh: blocks the CtBP interaction with E1A | AlphaScreen GST-E1A/His-CtBP binding, 1536-well; active compounds read low; control for the full effect not named in the record | activity change, % (no concentration beside the values) | hit rate 0.49% among 340,000; in the data active means activity change below about -65%; inconclusive means about -30% to -65%; inactive means above about -30%; further: on the % scale 0 is the no-effect control and ±100 the full control effect
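Protein mix (5X: 125 nM each GST-E1A, His-CtBP) was incubated with pinned compound 2 h at 37 deg C in dark, in 50 mM Tris pH 8.0 buffer with 300 mM NaCl. Glutathione donor and nickel acceptor beads followed; AlphaScreen signal read after 1 h.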
D2 ag: agonists of human D2 dopamine receptor (beta-arrestin); activation, % (test concentration not listed); P14416; DiscoveRx PathHunter D2 beta-arrestin, luminescence, 90 min; 100% = 57 uM dopamine signal; hit rate 0.084% among 360,000; in the data active = activation above about 40%; inconclusive = about 15% to 40%; inactive = below about 15%; further: compound concentration not given in the record; the text of the record calls up to 30% inactive
Target sequence (P14416 whole entry, looked up): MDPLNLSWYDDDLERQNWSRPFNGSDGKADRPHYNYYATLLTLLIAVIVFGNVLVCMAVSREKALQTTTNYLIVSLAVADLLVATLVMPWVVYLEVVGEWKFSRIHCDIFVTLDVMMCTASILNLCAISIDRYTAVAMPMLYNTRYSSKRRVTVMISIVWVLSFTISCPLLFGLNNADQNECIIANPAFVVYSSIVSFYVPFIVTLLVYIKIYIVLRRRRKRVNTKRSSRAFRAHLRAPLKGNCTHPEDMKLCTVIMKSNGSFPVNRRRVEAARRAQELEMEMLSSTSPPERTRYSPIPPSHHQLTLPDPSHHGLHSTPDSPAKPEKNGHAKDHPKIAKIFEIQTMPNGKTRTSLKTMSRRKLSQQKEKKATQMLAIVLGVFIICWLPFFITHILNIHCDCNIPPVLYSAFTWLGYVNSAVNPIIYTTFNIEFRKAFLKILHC
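DiscoveRx PathHunter D2 beta-arrestin cells (2,100/well) attached overnight, then compound-stimulated 90 min at 37 C in HBSS/10 mM HEPES/0.1% Tween-20 buffer; beta-galactosidase complementation read by luminescence after 1 h at ambient temperature. Dopamine 57 uM final (EC100) as control.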
Sfp inh: inhibitors of Bacillus subtilis Sfp phosphopantetheinyl transferase; Q9F4F7; Potency, µM, for the others: max response, negative = inhibition, hits mostly inhibitors; hit rate 3.5% among 310,000; Biochemical Sfp PPTase activity, qHTS; active means well fitted inhibition curve with a large enough effect; inconclusive means small, poorly fitted or top-dose-only effect, or another doubt; inactive means no such curve, though single readings can be large or run the other way;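 further: the enzyme is Sfp with the accession as filed and its product quenches rhodamine fluorescence; potency means the concentration at half of the fitted maximal effect; 0% = enzyme reaction without inhibitor and -100% = no enzyme wells; top concentration of the series not given in the record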
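Reaction rates are the 30-min fluorescence difference (ex 525, em 598 nm) in wells containing 15 nM Sfp, 5 uM rhodamine-CoA and 12.5 uM BHQ-2-YbbR at pH 7.6 with 10 mM MgCl2.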
TRPV1 potentiator: potentiators of human vanilloid receptor 1 (TRPV1). Q8NER1. TRPV1-expressing cells, Fluo-8 calcium influx, capsaicin EC20 potentiation; host cell line not named in the record; control for the full effect not named in the record. potentiation, % at 8.33 µM. hit rate 0.02% among 320,000. AID 540277; active means potentiation above 80%; inconclusive means 30% to 80%; inactive means below 30%; further: 0% is about no effect
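TRPV1-expressing cells were cultured overnight at 35.5C and loaded with Fluo-8 calcium dye for 40 to 90 min at room temperature. After a 10 s baseline, compound was added and calcium influx was read kinetically for 3 min (ex 480/em 520 nm).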
PINK1 modulator: changes PINK1 expression; PINK1 immunofluorescence, high-content cytometry, 24 h; Potency, µM (titrated, usually from 76.6 µM), inactives show at the top dose activation (PINK1 increase), actives largely listed as activators; hit rate 0.2% among 410,000; AID 624263; active = well fitted activation curve with a large enough effect; inconclusive = small, poorly fitted or top-dose-only effect; inactive = flat fitted curve, though single readings scatter; cell line not stated here;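 further: potency means the concentration at half of the fitted maximal effect; % of control where 0% means no effect; nearly all actives have a fitted effect of over 65% in size; a mitochondrial uncoupler was the plate control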
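Decision-based qHTS: stable cells, 24 h exposure to five compound concentrations, CCCP as control. Fixed cells stained for PINK1 plus nuclear, mitochondrial and cell markers, cytometer read.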
Six1-Eya2 inh: inhibitors of human Six1/Eya2 interaction; hit rate 0.56% among 360,000; AlphaScreen GST-Six1/His-Eya2 binding, biochemical; active compounds read low; control for the full effect not named in the record; activity change, % (no concentration beside the values); in the data active = activity change below about -65%; inconclusive = about -30% to -65%; inactive = above about -30%; further: on the % scale 0 is the no-effect control and ±100 the full control effect
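AlphaScreen with GST-Six1 and His-Eya2 (5X mix: 250 nM and 500 nM), glutathione donor and nickel acceptor beads; buffer 50 mM Tris pH 8.0, 300 mM NaCl, 1 mM TCEP; 1 h at 37 C in the dark.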
D2 PAM: potentiates the human D2 dopamine receptor allosterically; P14416; DiscoveRx D2 beta-arrestin cells, luminescence, 90 min; 100% = 57 uM dopamine signal; potentiation, % (no concentration beside the values); hit rate 0.23% among 360,000; AID 624464; active = potentiation of 50% or more; inconclusive = 30% to 50%; inactive = 30% or less;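 further: compound concentration not given in the record; tested on top of an EC20 dose of dopamine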
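PathHunter beta-arrestin assay in DiscoveRx D2 cells. Compounds were added with an EC20 of dopamine (50 nM final) for 90 min at 37 deg C. Luminescence was read 1 h after detection reagent, with 57 uM dopamine as the EC100 control.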
* = called active by the depositor; ? = inconclusive; . = no result given; & = joins results of further samples; [ ] = remark or other dose. Some of the compounds tested, so the mix of outcomes need not match the whole.

SMILES	CtBP-E1A inh	D2 ag	Sfp inh	TRPV1 potentiator	PINK1 modulator	Six1-Eya2 inh	D2 PAM
Cc1nc2c(c(=O)[nH]1)C(c1ccc([N+](=O)[O-])cc1)c1c(c3ccccc3oc1=O)O2 (configuration not stated)	2	-4.2	3%	?	0.7%	3	-4
CC(C)NS(=O)(=O)c1ccc(OCC(=O)N2CCN(Cc3ccccc3)CC2)c(Cl)c1	6	-0.8	-26%	?	0.4%	7	-5
CSc1ccc(C(=O)C(C)(C)N2CCOCC2)cc1	0	0.3	8%	1	1.1%	6	28
NP(=O)(Oc1ccc(Cl)cc1)Oc1ccc(Cl)cc1	6	3.8	-3%	-25	2.2%	1	-3
O=C(C1c2ccccc2C(=O)N2CCc3ccccc3C12)N1CCC2(CC1)OCCO2 (configuration not stated)	-2	-1.1	14%	5	-1.4%[38.3 µM]	2	-9
O=C(c1ccc2c(c1)N(Cc1ccccc1)CCS2)N1CCC2(CC1)OCCO2	-7	-0.4	-2%	-19	-1.0%	-13	-4
COC(=O)NC(=S)Nc1ccccc1NC(=S)NC(=O)OC	-16	-2.5	32µM*	.	0.7%&2.6%	1	-9
Cc1cc(C(=O)NP(=O)(N2CCOCC2)N2CCOCC2)c(C)n1C1CC1	-3	4.3	23%	-12	-1.5%	5	0
Nc1ccc(CCN2CCN(c3cccc(C(F)(F)F)c3)CC2)cc1	-22	-4.3	26%	.	1.6%	-4	-29
Cc1nn(Cc2ccccc2Cl)c(Cl)c1C(=O)OC(C(=O)NC(N)=O)C(C)C (configuration not stated)	2	-1.6	6%	6	7.2%	7	-10
Cc1cc(C=C2C(=O)N(C)C(=S)N(C)C2=O)c(C)n1C1CCCC1	-5	-5.0	56µM*	-24	-0.1%	-4	-6
Clc1ccc(N2CCN(Cc3ccccc3Cl)CC2)cc1	0	1.8	-26%	6	2.1%[38.3 µM]	0	-20
COc1ccc(F)cc1C(=O)C1CCCN(Cc2ccc(O)cc2)C1 (configuration not stated)	-1	.	7%	-3	-1.7%	-4	-14
CN1CCN(c2ccc(N)cc2)CC1	-12	0.5	9%	11	0.6%	-21	-16
O=C(NCC1=C(c2cccc3ccccc23)C[C@@H]2CC[C@H]1N2Cc1ccco1)c1cccs1	-18	-0.2	.	.	9.1%	-21	.
CCCn1nc2ccccc2c1P(=O)(N1CCOCC1)N1CCOCC1	-14	-1.1	7%	6	0.5%	0	13
O=C1CCC2(O)C3Cc4ccc(O)c5c4C2(CCN3Cc2ccoc2)C1O5 (configuration not stated)	0	-10	.	.	1.6%	-2	-12
COP(=O)(OC)C(NS(=O)(=O)c1ccccc1)C(Cl)(Cl)Cl (configuration not stated)	-2	-3.4	13%	-3	2.5%	12	2
CCOC(=O)[C@]12Cc3cc4ccccc4cc3[C@H]1N(Cc1ccccc1)C(=O)c1cc(OC)ccc12	-23	.	.	.	-1.4%	-13	.
CCN(CC)C(=O)c1ccc(NC(=O)c2cn(-c3ccccc3)nc2-c2ccc(OC)cc2)cc1	5	0.7	12%	8	-0.2%	-11	5
COc1ccc(C)cc1NC(=O)c1c(C)nn(Cc2ccccc2)c1Cl	8	-8.5	?	-4	1.5%	15	-8
O=c1c2ccccc2nc(-c2ccccc2)n1-c1cccnc1	-2	1.5	1%	-14	-3.5%	10	-9
CCNC(=O)NC(=O)C(C)OC(=O)c1c(C)nn(Cc2ccccc2Cl)c1Cl (configuration not stated)	-5	0.5	6%	-5	5.6%	-1	-10
CCC(C)N1CCN(C(=O)COc2ccc3ccccc3c2)CC1 (configuration not stated)	0	-0.3	-20%	7	0.5%	-3	-1
CCCCCCn1c(O)c(C=NC2CCCCC2N)c(=O)[nH]c1=O (configuration not stated)	-10	0.8	7%	1	4.1%	-1	-7
COC(=O)C(C)NC(=S)N1CC2C[C@@H](C1)Cn1c2cccc1=O (some centres not stated)	-2	3.3	18%	-6	0.5%	0	-6
O=C(CN1CCCCC1)c1cccc(Br)c1	6	-20	-2%	-7	0.4%	4	-45
CCc1ccccc1N1C(=O)NC(=O)/C(=C\c2cc(C)n(C)c2C)C1=O	0	-5.1	3%	-9	0.6%	5	-10
O=C1CC(C(=O)N2CCC3(CC2)OCCO3)CN1CCc1ccccc1 (configuration not stated)	5	-2.0	24%	-1	-0.9%	1	-4
CCC(=O)CC(c1ccccc1)c1c(O)c2ccccc2sc1=O (configuration not stated)	5	-2.9	-3%	13	0.5%	3	-3
CCCOc1ccccc1NP(=O)(Oc1ccccc1)Oc1ccccc1	.	-2.5	-11%	-7	-0.3%	18	-7
COc1ccc(CNCCc2ccccc2F)c(OC)c1C	7	1.2	-21%	?	0.3%	2	-3
O=C(NC1(C(F)(F)F)Oc2ccc(Cl)cc2O1)N1CCC2(CC1)OCCO2 (configuration not stated)	4	4.4	79µM*	0	-2.8%	-2	.
CC1(C)CSC(Nc2ccc(F)c(Cl)c2)=N1	2	-1.0	29%	19	0.8%	6	13
O=C1C2(c3ccccc3)CN3CN(C2)CC1(c1ccccc1)C3	10	1.7	12%	2	0.1%[38.3 µM]	6	10
CN1C[C@H](CO)C[C@@H]2c3cccc4[nH]cc(c34)C[C@H]21	.	?	4%	14	0.9%	-5	53*
CCc1ccccc1NC(=O)CN1CCN(C(=O)COc2ccccc2C#N)CC1	.	-0.5	.	7	0.7%	0	-2
O=C1NC(=S)NC(=O)C12C(c1ccccc1)NC(=S)NC2c1ccccc1 (configuration not stated)	-16	-1.7	?	2	4.4%	-2	15
CCOC(=O)[C@]12Cc3ccccc3[C@H]1N(C(C)C)C(=O)c1ccccc12	-8	.	.	.	0.4%	-2	.
COc1cc(C(=O)N2Cc3ccccc3-n3nncc3C2)cc(OC)c1OC	5	-2.7	.	.	0.5%	5	1
c1ccc2cc(C3N4CCCN34)ccc2c1 (configuration not stated)	-24	-4.2	2%	0	0.8%	11	-17
Cc1cc(C)c2c(ccc3cccc[n+]32)c1	-3	-5.1	.	.	0.5%	-19	-8
CC(=O)OC1(c2ccccc2)CCN(C)CC1(C)C (configuration not stated)	10	-3.9	6%	-5	-0.1%	6	-4
CC1([N+](=O)[O-])COP(=O)(NCc2cccnc2)OC1 (configuration not stated)	4	-4.1	.	.	0.7%	2	-9
CSc1ncc(/C=C2/C(=O)NC(=O)N(C3CCCCC3)C2=O)cn1	11	-0.7	40µM*	11	9.2%	3	0
Cc1cccc(C)c1-n1nnnc1C(CCc1ccccc1)N1CCC(n2c(=O)[nH]c3ccccc32)CC1 (configuration not stated)	13	3.5	.	.	6.4%	0	-3
O=C(Nc1ccc(Cl)cc1)N1CC2CC(C1)c1cccc(=O)n1C2 (configuration not stated)	8	-4.5	-7%	4	2.5%	-1	-21
COC(=O)C1=C(c2ccccc2)C[C@@H]2CC[C@H]1N2C(=O)NCCO	0	-3.2	.	.	1.3%	6	-1

Single records, as listed above.
CCOC(=O)[C@]12Cc3ccccc3[C@H]1N(C(C)C)C(=O)c1ccccc12 is listed with CtBP-E1A inh = -8; D2 ag = .; Sfp inh = .; TRPV1 potentiator = .; PINK1 modulator = 0.4%; Six1-Eya2 inh = -2; D2 PAM = .
COC(=O)C(C)NC(=S)N1CC2C[C@@H](C1)Cn1c2cccc1=O (some centres not stated) is listed with CtBP-E1A inh = -2; D2 ag = 3.3; Sfp inh = 18%; TRPV1 potentiator = -6; PINK1 modulator = 0.5%; Six1-Eya2 inh = 0; D2 PAM = -6

The listing continues:
SMILES	CtBP-E1A inh	D2 ag	Sfp inh	TRPV1 potentiator	PINK1 modulator	Six1-Eya2 inh	D2 PAM
CC(=O)N(C1=NCCCS1)c1ccccc1Cl	-8	-5.6	-5%	-24	1.4%	6	-2
CNCC(C)c1ccccc1 (configuration not stated)	10	5.7	11%	7	3.1%	-1	-5
COC(=O)C1=C(c2ccc(-c3ccccc3)c(F)c2)C[C@@H]2CC[C@H]1N2C(=O)NCCc1ccccc1	.	-0.4	.	5	1.6%	0	-20
O=C(c1ccccc1F)c1cn(Cc2ccccc2)c2ccccc12	11	-3.1	14%	-9	0.8%[38.3 µM]	7	-10
C[C@H]1O[C@@H](O[C@H]2[C@@H](O)C[C@H](O[C@H]3[C@@H](O)C[C@H](O[C@H]4CC[C@@]5(C)[C@H](CC[C@@H]6[C@@H]5CC[C@]5(C)[C@@H](C7=CC(=O)OC7)CC[C@]65O)C4)O[C@@H]3C)O[C@@H]2C)C[C@H](O)[C@@H]1O	-22	3.1	5%	11	-0.8%	6	-5
O=C(CSc1nnnn1-c1ccccc1)Nc1ccc(N2CCOCC2)c(Cl)c1	5	-2.4	-13%	15	?	0	-6
COc1cccc(CNCCc2c[nH]c3ccccc23)c1	-8	3.4	-17%	-9	2.4%	-16	-23
CC(C)N1CC=C(c2c[nH]c3ccccc23)CC1	21	-1.2	-1%	-8	1.0%	11	-39
O=C(c1ccc(C(F)(F)F)cc1)C1CCCN(Cc2ccc(CO)o2)C1 (configuration not stated)	.	-4.4	1%	13	-1.1%	3	-22
O=C(Cn1cc(C(=O)c2ccccc2F)c2ccccc21)NCc1ccco1	0	0.8	-5%	5	?	-1	-11
Cc1cc(/C=C2\C(=O)NC(=O)N(c3ccccc3F)C2=O)c(C)n1-c1cc(C(=O)O)cc(C(=O)O)c1	.	-3.7	-18%	1	2.3%	?	-29
c1ccc2c(CCNC3=NCCC3)c[nH]c2c1	2	-4.8	?	-3	-1.6%	-4	-10
CN(C)/C=C(\C=[N+](C)C)c1[nH]ncc1[N+](=O)[O-]	4	-3.2	1%	19	1.8%	3	-3
O=[N+]([O-])c1cc(S(=O)(=O)c2ccc(O)c([N+](=O)[O-])c2)ccc1O	-16	-1.3	-2%	16	2.2%	?	6
CCOC(=O)C1=C(N)OC(C)=C(C(=O)OCCOC)C12C(=O)Nc1ccccc12 (configuration not stated)	5	-2.6	12%	-7	0.9%	3	4
O=C1NCN(c2ccccc2)C12CCN(C(c1ccccc1)c1nnnn1C1CCCC1)CC2 (configuration not stated)	0	-1.9	.	.	2.1%	0	.
CC1C(c2cccs2)=[N+]([O-])C(C)(C(=O)c2ccc(F)cc2)N1O (configuration not stated)	-2	1.1	.	.	.	-1	7
NC(=O)Cn1cc(C(=O)c2ccccc2)c2ccccc21	1	1.0	11%	?	2.2%	2	-3

Screening results (PubChem BioAssay)
